Source: PubChem BioAssay (Fisher Drug Discovery Resource Center)
NPYLR7 agonist – activates Aedes aegypti NPYLR7 receptor; AID 1259423; 270,000 compounds, 0.15% hits; activation, % at 10 µM; HEK293T NPYLR7/Galpha15, GCaMP6s calcium fluorescence; in the data active = activation above about 40%;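 note: 0% = vehicle and 100% = reference agonist at the receptor; some compounds past the cut are filed as inactive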
NPYLR7 agonist max-min – second read-out of NPYLR7 agonist, no call of its own (marks repeat the call); activation, %; measured here: Max-Min RFU normalised activation; some inactives read as strong as hits;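 span of the calcium signal over five minutes; 0% = vehicle and 100% = native peptide agonist; compound fluorescence can raise it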
Numbers without * were called inactive. This is a subset; count on the stated rates, not on these rows.

Sample of the layout (three entries):
SMILES	NPYLR7 agonist	NPYLR7 agonist max-min
COC(=O)C1C(=O)c2cccnc2C1=O (stereo not drawn)	3	3
Cc1cc(CNC(=O)C2CCN(S(=O)(=O)c3ccc4c(c3)CCC4)CC2)ccc1F	14	18
CC(=O)Nc1cccc(-c2cc3c(cc2C(N)=O)OCO3)c1	-3	-6

The list itself, from the start:
SMILES	NPYLR7 agonist	NPYLR7 agonist max-min
COC(=O)C1C(=O)c2cccnc2C1=O (stereo not drawn)	3	3
Cc1cc(CNC(=O)C2CCN(S(=O)(=O)c3ccc4c(c3)CCC4)CC2)ccc1F	14	18
CC(=O)Nc1cccc(-c2cc3c(cc2C(N)=O)OCO3)c1	-3	-6
CC(C)(Oc1ccc(Cl)cc1)C(=O)Nc1c(C(=O)N2CCOCC2)oc2ccccc12	-1	10
CCCc1cc(C(=O)OCc2cc(=O)n(C)c(=O)n2C)n[nH]1	7	3
Cc1cc(NC(=O)C2CC2)sc1C(=O)n1ccnc1	-1	-3
Cn1cc(C2=NN(c3nc(-c4ccccc4)cs3)C(c3cnn(C)c3)C2)cn1 (stereo not drawn)	1	37
O=C(c1cc(Cl)cc(Cl)c1)N1CCC(c2nc(-c3ccccc3F)no2)CC1	6	3
O=C(COc1ccc(Cl)cc1)Nc1ccc(-c2cccc(-c3ccc4c(c3)OCCO4)n2)cc1	-4	-6
Cc1c(-c2nc(-c3ccccc3Cl)no2)nnn1-c1cccc(F)c1	-2	-7
O=C(NC1CC1)c1ccc(CSc2nnc(-c3ccccc3Cl)n2-c2cccc(Cl)c2)cc1	5	10
Cc1cc(C(=O)N(Cc2nccn2C)C(C)C)sc1C	-10	-12
O=S(=O)(NCc1ccncc1)c1ccc(F)c(C(F)(F)F)c1	1	4
O=C(NCC1Cc2cccc(F)c2O1)c1ccc(Cl)cc1Cl (stereo not drawn)	3	-2
Cn1ncc2cc(NC(=O)c3cccc(CN4CC=CCC4)c3)ccc21	-5	-4
CCOc1cccc2c1OCC(C(=O)Nc1ccccc1F)=C2	0	-1
COc1cc(C)sc1C(=O)Nc1ccc(CN(C)C)c(F)c1	-5	-5
Cc1ccccc1NC(=O)CNC(=O)CCCn1cnc2ccccc2c1=O	21	11
COc1c(C(=O)NOCc2ccccc2)cnc2c1c(C)nn2C	-4	-4
O=C(NCCc1ccccn1)C(C1CCCC1)N1CCN(C(=O)c2ccccc2Cl)CC1 (stereo not drawn)	-7	-9
CSc1ncc(C(=O)Nc2cc(C(C)(C)C)nn2C2CCS(=O)(=O)C2)n1-c1ccc(F)cc1 (stereo not drawn)	-5	-8
CCOc1cccc(CN2CCC(C(=O)Nc3ccc(-n4nc(C)cc4C)cc3)CC2)c1	7	2
COc1ccc(S(=O)(=O)Oc2cccc(CN(CC3CCCO3)C(=O)NC(C)(C)C)c2)cc1 (stereo not drawn)	-1	-2
CC(NC(C)c1cccc(Cl)c1)C(=O)N(C)C1CCS(=O)(=O)C1 (stereo not drawn)	6	2
O=C(Nc1nccs1)C1CCCCC1	7	7
CC(C(=O)N(C)C)N(C)Cc1ccccc1C(=O)O (stereo not drawn)	8	5
Cc1ocnc1C(=O)N1CCCC(CCc2ccc(F)cc2)C1 (stereo not drawn)	7	4
CC(Nc1cccc(C(N)=O)c1)c1ccc(F)cc1 (stereo not drawn)	7	4
CCN1CCN(C(=O)C(NC(=O)c2cc(-c3cc(C)ccc3C)on2)C(C)C)CC1 (stereo not drawn)	5	3
Cc1ccc(N2C(=O)CSC2c2cccc(NC(=O)C3CC3)c2)cc1F (stereo not drawn)	23	20
COc1cc(NC(=O)C(C)OCC(F)(F)F)c(OC)cc1Cl (stereo not drawn)	-5	-4
CS(=O)(=O)c1ccc(C(=O)N(CCCN2CCOCC2)c2nc3c(F)cccc3s2)cc1	-5	-9
Cc1ccc(Nc2nc(NCC(C)O)nc3c2cnn3-c2ccccc2)cc1 (stereo not drawn)	2	0
COCCN(Cc1ccc(OC)cc1)CC(O)Cc1ccccc1 (stereo not drawn)	17	20
COc1cc(-c2nc(C(N)=O)c3[nH]c(=O)n(-c4ccc(C)cc4)c3n2)cc(Br)c1O	10	16
CCCn1c(=O)c2ccccc2n(CC(=O)NCc2cccc(C(F)(F)F)c2)c1=O	10	23
COc1ccc(Cc2nnc(NC(=O)NC3CCNCC3)s2)cc1OC	-4	-6
CCS(=O)(=O)c1ccc(NC(=O)/C=C/c2ccc(C)cc2C)cc1	8	5
CC(C(=O)NC1(c2cccc(Br)c2)CC1)n1ccnc1 (stereo not drawn)	9	6
COc1cn2c(cc1=O)C(=O)N(CCNC(=O)c1ccc(Cl)cc1Cl)CC2	1	-1
CN(Cc1n[nH]c2c1CCC2)c1cc(NC2CC2)nc(N)n1	19	16
Cc1cc(C)n2c(NCc3ccccc3)c(-c3ccc(C(F)(F)F)cc3)nc2c1	19	27
CCCN(CC(=O)N(CCc1ccc(OC)c(OC)c1)Cc1sccc1C)C(=O)c1cccc(F)c1	-9	-1
CC1(C(=O)NCc2ccc(Cl)cc2)CCN1C(=O)Cc1ccccc1 (stereo not drawn)	15	13
CON(C)C(=O)c1cccc(S(=O)(=O)NCc2ccccc2)c1	-1	-1
Cc1nnc(NC(=O)CSc2nncn2C)s1	2	1
Cc1ccn2c(NC(=O)C3CCCCC3)c(-c3ccccc3)nc2c1	-10	-2
CC(C)NC(=O)N(Cc1ccc(OS(=O)(=O)C(C)C)cc1)C1CC1	25	30
O=C(NNC(=O)c1ccc2c(c1)OCO2)c1cc(C(F)(F)F)cc(C(F)(F)F)c1	0	1
Cc1nc(SCCCCSc2n[nH]c(C)n2)n[nH]1	5	2
CC(=O)N1CCn2nc(C(=O)NCCC(=O)Nc3cc(C)ccc3C)cc2C1	4	3
CCCCc1ccc(C(=O)NCc2nnc(SCc3cccc(OC)c3)n2-c2cc(Cl)ccc2C)cc1	-6	-3
CC1(C(=O)NCC2CCCCC2)CCN1C(=O)c1ccco1 (stereo not drawn)	1	0
COc1ccccc1C(=O)Nc1ccnn1C1CCN(C(=O)C2=CCCC2)CC1	2	0
Cc1cccn2c(CNC3CCC4(CCNCC4)CC3)cnc12	6	2
Cc1n[nH]c(C)c1N	4	9
COc1cc(C)c(S(=O)(=O)NCCOc2ccc(-c3ccc(C)cc3)nn2)cc1C	13	6
Cc1cccnc1[C@H](C)NC(=O)c1c(C)nc2ncccn12	1	0
CCCN(C)c1cc(C)nc(SCc2ccc(C(=O)NCc3ccco3)o2)n1	0	6
CN1CCCn2nc(C(=O)NCc3coc(-c4ccccc4)n3)cc2C1	20	5

(list continues)
SMILES	NPYLR7 agonist	NPYLR7 agonist max-min
S=c1nn[nH]n1C1CC2C=CC1C2 (stereo not drawn)	-3	-4
COc1ccc(Cn2c(SC)nc3c(-c4ccccc4)c[nH]c3c2=O)cc1	-2	-7
CCN1CC(c2nc3ccccc3n2Cc2ccccc2Cl)CC1=O (stereo not drawn)	-3	-2
Cc1cc(NC(=O)CC(C)(C)C)no1	-2	5
CC(=O)c1c(C)[nH]c(C(=O)C(C)Sc2ncccn2)c1C (stereo not drawn)	6	6
O=c1c2nnn(Cc3ccc(F)cc3)c2ncn1Cc1ccccc1Cl	8	12
COC(=O)CNc1ccc(Cl)c(C(N)=O)c1	11	7
CC(C)CC(C(=O)OCC(=O)c1ccc(Cl)cc1Cl)N1C(=O)C2C3C=CC(C4CC34)C2C1=O (stereo not drawn)	7	10
Cc1cnc(C)c(N2CCN(Cc3ccc(-n4cncn4)cc3)CC2)n1	6	1
O=c1oc2c(CN3CCN(CCO)CC3)c(O)ccc2cc1-c1ccccn1	10	8
COc1ccc(CC(=O)Nc2n[nH]c(-c3ccc(C)cc3)n2)cc1	11	6
CC(C(=O)O)N1C(=O)CSC1c1ccc(C(C)(C)C)cc1 (stereo not drawn)	-2	-6

At a glance, 4 of the compounds above.
SMILES	NPYLR7 agonist	NPYLR7 agonist max-min
S=c1nn[nH]n1C1CC2C=CC1C2 (stereo not drawn)	-3	-4
COc1ccc(Cn2c(SC)nc3c(-c4ccccc4)c[nH]c3c2=O)cc1	-2	-7
CCN1CC(c2nc3ccccc3n2Cc2ccccc2Cl)CC1=O (stereo not drawn)	-3	-2
Cc1cc(NC(=O)CC(C)(C)C)no1	-2	5

Quoted at random: 2 records from the list
SMILES	NPYLR7 agonist	NPYLR7 agonist max-min
O=c1oc2c(CN3CCN(CCO)CC3)c(O)ccc2cc1-c1ccccn1	10	8
COc1ccc(Cn2c(SC)nc3c(-c4ccccc4)c[nH]c3c2=O)cc1	-2	-7

(cont.)
SMILES	NPYLR7 agonist	NPYLR7 agonist max-min
CC(O)(c1cccc(F)c1)c1nc(-c2cnc3ccccc3c2)cs1 (stereo not drawn)	15	12
COc1ccc2c(=O)c3c(oc2c1)C(=O)N(c1nccs1)C3c1ccccc1OC (stereo not drawn)	4	1
CCN1CCN(C(=O)c2cc(C(C)C)n(-c3nc4ccccc4s3)n2)CC1	9	1
CCCn1cc(NC(=O)CC23CC4CC(CC(O)(C4)C2)C3)ccc1=O	3	1
O=C(CN1CCCCCCC1=O)Nc1ccnc2ccncc12	-5	-7
Cc1ccc(OS(=O)(=O)c2ccc(F)cc2)c(-c2nc3c(C)cccc3o2)c1	16	20
CC(C)CCn1c(=O)c2c(nc3n2CC(C)CN3c2ccccc2)n(C)c1=O (stereo not drawn)	1	-2
CC(C)(C)n1ncc2c(=O)n(NC(=O)C3CC(=O)N(c4ccccc4)C3)cnc21 (stereo not drawn)	2	1
Cc1noc(C)c1S(=O)(=O)N1CCN(Cc2ccc(Cl)s2)CC1	1	0
CCCNC(=O)N1CCC2(CCCN(Cc3cccc(OC)c3OC)C2=O)C1 (stereo not drawn)	4	3
Cc1ccc(C)n1-n1cnc2sc3c(c2c1=O)CCCC3	-4	-4
O=C(c1c(F)c(F)cc(F)c1F)N1CCOC(Cc2ccccc2)C1 (stereo not drawn)	-5	-14
C/C(=C\c1ccccc1)c1nc(-c2cccc(C(F)(F)F)c2)no1	-8	-11
Cc1cc(C)n(CC2(CNCC(=O)Nc3cccc(C)c3C)CC2)n1	12	10
c1cc(Cn2ccnc2-c2cnc[nH]2)c2cc[nH]c2c1	18	2
CCC(C)Nc1nc2cc(C)nn2c2ccccc12 (stereo not drawn)	-1	22
CC(=O)Oc1ccc(Cn2c(C)c(C(=O)NC3CCCC3)sc2=O)cc1	1	-2
CCOC(=O)C1(CCCc2ccccc2)CCCN(Cc2nccn2CC)C1 (stereo not drawn)	13	7
CCOC(=O)CCC(=O)N(CC(=O)N(Cc1cccn1Cc1ccccc1Cl)C1CCCCC1)C(C)CC (stereo not drawn)	-6	0
CC1(C(=O)NS(=O)(=O)c2ccccc2C(F)(F)F)CCN1C(=O)C1(c2ccccc2)CC1 (stereo not drawn)	2	1
Cc1nc(-c2ccc(Cl)cc2)nc(N2CCN(C(=O)c3ccc([N+](=O)[O-])cc3)CC2)c1C	10	18
CN1CCN(c2nc(Nc3ccccc3)c3cnn(-c4ccccc4)c3n2)CC1	1	-1
CCCCNC(=O)N1CCN(C(=O)c2cc(-c3cccc(OC)c3)n(-c3ccccc3F)c2C)CC1	-3	4
Cc1nn(-c2ccccc2)c(C)c1CC(=O)N1CC[C@H](CO)[C@@H](O)C1	-4	-4
COc1ccccc1CN(C)C(=O)c1c(-c2ccccc2)noc1C	2	1
CCOC(=O)C1(CCOc2ccccc2)CCN(Cc2cn(C)nc2-c2ccccc2)CC1	5	11
CCC(C)NCc1ccc(OS(=O)(=O)c2ccc(NC(C)=O)cc2)cc1 (stereo not drawn)	26	20
CC(C)N(C(=O)c1ccc2nnc(C(F)F)n2c1)C1CCOCC1	1	-1
CCCCOc1ccc(/C=C2\N=C(c3cccc([N+](=O)[O-])c3)OC2=O)cc1	-15	-18
O=C(c1cc2n(n1)CCN(Cc1cccc(Cl)c1)C2=O)N1CCN(c2ccccc2F)CC1	-2	4
CCC1=NOC(CNC(=O)CCc2nc3ccc(F)cc3[nH]2)C1 (stereo not drawn)	-5	-10
Cc1ccc(CN(CCc2c[nH]c3ccccc23)C(=O)CN(C(C)C)S(=O)(=O)c2ccc(Br)cc2)cc1	-5	4
CCCNC(=O)[C@@H]1CCCC[C@@H]1C(=O)N(CC)CCO	5	4
Cc1cccc(CNC(=O)c2sc(=O)n(Cc3ccc(F)cc3)c2C)c1	11	4
O=c1c2oc3ccccc3c2ncn1CCOc1ccccc1	16	15
CCCCCN(C(=O)Nc1cccc(OC)c1)C(CC)c1nc2ccccc2c(=O)n1-c1ccc(C)c(C)c1 (stereo not drawn)	6	6

Arranged by number of heavy atoms (ascending): some entries from above.
SMILES	NPYLR7 agonist	NPYLR7 agonist max-min
CCC1=NOC(CNC(=O)CCc2nc3ccc(F)cc3[nH]2)C1 (stereo not drawn)	-5	-10
CC(C)N(C(=O)c1ccc2nnc(C(F)F)n2c1)C1CCOCC1	1	-1
COc1ccccc1CN(C)C(=O)c1c(-c2ccccc2)noc1C	2	1
CCC(C)NCc1ccc(OS(=O)(=O)c2ccc(NC(C)=O)cc2)cc1 (stereo not drawn)	26	20
Cc1ccc(CN(CCc2c[nH]c3ccccc23)C(=O)CN(C(C)C)S(=O)(=O)c2ccc(Br)cc2)cc1	-5	4

Carrying on:
SMILES	NPYLR7 agonist	NPYLR7 agonist max-min
C/C=C\COC1CCCN(C(=O)Cc2ccccc2)C1 (stereo not drawn)	-2	6
O=S(=O)(Nc1ccc(S(=O)(=O)N2CCCC2)cc1)c1ccc(Cl)cc1	3	1
O=C(CNC(=O)c1ccccc1Cl)N=Nc1c(O)[nH]c2ccccc12	-3	-10
O=C(NCc1ccccc1Cl)[C@@H]1C[C@@H](n2cnnn2)CN1C/C=C/c1ccccc1	18	11
CC(C)c1nc(SCc2nc(-c3ccccc3Cl)no2)n[nH]1	10	8
COc1ccc(NC(=O)N2CCC(Cc3cccc(C(N)=O)c3)C2)c(C)c1 (stereo not drawn)	7	5
Cc1cccn2c(=O)c3cc(C(=O)NCC(C)C)sc3nc12	4	1
O=C(N[C@H](CO)Cc1ccccc1)C1CC=CCC1C(=O)N1CCc2c([nH]c3ccccc23)C1 (stereo partly drawn)	-6	-14
CCCC(=O)N1CCN(Cc2nnnn2-c2ccc(OCC)cc2)CC1	1	0
COC(=O)c1cc(C)nc2nc(N)sc12	14	12
Cc1ccc(NCc2ccc(CO)o2)cc1	18	11
